Screening data from PubChem.
A1 inh – inhibitors of the anti-apoptotic protein A1, read as caspase activation; MEF A1-2A-BIM cells, Caspase-Glo 3/7 luminescence, 3 h; percent of clofoctol response, vehicle zero; caspase activation, % (test concentration not listed); 0.066% of 330,000 active; AID 2462;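 active = over half of replicate activation scores above 10%, or exactly half above 10 with the replicate mean above 10; inconclusive = replicate mean below 10 yet half the replicates above 10; inactive = over half of replicates below 10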;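 also: wells of about 30 µL received 50 nL stock; many hits fall short of the cut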
E coli growth – blocks Escherichia coli growth | OD600, 23 h; hits give low values | OD600 absorbance (no concentration beside the values) | 0.21% of 330,000 active;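 active = OD600 absorbance below the run mean of sample wells minus 3.6 SD, in any replicate, cut at about 0.56 in these data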;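 also: stock transfer was 300 nL into about 60 µL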
LANA-H2B inh – blocks KSHV LANA binding to histone H2A/H2B; cell-free LANA-H2A/H2B peptide, fluorescence polarization; inhibition, % (test concentration not listed); 0.6% of 320,000 active; in the data active = inhibition mostly above about 10%, no sharp cut-off; inactive = mostly below about 6.7%;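 also: stock transfer was 7.5 nL into about 10 µL; 0% = median of vehicle wells and 100% = median of positive control wells; one replicate is shown; the record names a cut of 25% in any replicate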
Target sequence (Q9QR71 whole entry, looked up): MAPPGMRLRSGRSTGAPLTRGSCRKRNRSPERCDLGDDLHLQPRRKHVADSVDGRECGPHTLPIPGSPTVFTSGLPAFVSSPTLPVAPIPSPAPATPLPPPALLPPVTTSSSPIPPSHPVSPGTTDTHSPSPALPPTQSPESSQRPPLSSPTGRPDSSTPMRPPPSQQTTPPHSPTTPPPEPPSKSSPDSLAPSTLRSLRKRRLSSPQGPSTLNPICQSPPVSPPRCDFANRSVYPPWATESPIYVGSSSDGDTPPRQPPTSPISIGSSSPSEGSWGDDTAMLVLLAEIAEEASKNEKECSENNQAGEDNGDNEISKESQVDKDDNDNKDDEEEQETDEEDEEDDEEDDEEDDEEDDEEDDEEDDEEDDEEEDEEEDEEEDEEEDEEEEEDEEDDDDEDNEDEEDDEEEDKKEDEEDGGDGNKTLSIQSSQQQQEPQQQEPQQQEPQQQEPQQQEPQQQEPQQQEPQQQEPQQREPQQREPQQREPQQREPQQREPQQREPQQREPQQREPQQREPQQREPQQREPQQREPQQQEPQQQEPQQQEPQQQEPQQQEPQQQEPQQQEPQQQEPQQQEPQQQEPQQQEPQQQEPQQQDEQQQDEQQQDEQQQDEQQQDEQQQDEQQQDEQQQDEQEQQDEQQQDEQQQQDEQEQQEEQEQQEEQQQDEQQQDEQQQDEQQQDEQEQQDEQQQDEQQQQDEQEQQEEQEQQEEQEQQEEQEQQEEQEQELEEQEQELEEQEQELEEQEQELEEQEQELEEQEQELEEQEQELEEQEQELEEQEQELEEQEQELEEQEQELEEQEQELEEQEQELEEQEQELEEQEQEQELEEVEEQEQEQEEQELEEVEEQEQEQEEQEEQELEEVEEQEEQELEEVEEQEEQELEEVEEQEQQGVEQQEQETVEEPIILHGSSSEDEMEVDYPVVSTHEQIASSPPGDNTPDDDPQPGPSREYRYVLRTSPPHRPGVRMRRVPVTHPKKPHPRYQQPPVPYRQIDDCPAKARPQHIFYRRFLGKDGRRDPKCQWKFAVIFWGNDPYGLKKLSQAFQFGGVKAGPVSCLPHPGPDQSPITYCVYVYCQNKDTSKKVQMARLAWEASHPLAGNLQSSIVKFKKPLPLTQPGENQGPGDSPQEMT
Beta2AR agonist – agonists of human beta-2 adrenergic receptor inducing internalization; P07550; Am2.2-beta2AR cells, FAP receptor internalization, flow cytometry; reference of the scale not given here; response, % (test concentration not listed); 0.43% of 340,000 active; AID 504454;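 active = response above a set limit, near 3 SD of response in nonfluorescent compounds, cut at about 42% in these data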;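 also: stock transfer was 100 nL into about 11 µL; a reference agonist was the positive control; negative values mostly stem from fluorescent compounds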
HNF4A DNA FP – change in binding of human HNF4 alpha to DNA; P41235; HNF4a-FITC DNA binding, fluorescence polarization, 1 h; activity change, % at 10 µM; 0.3% of 360,000 active; AID 1224865; in the data active = activity change above about 30%, passing the limit was not always enough;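 also: controls were the assay level and a saturating level of protein; the project sought stronger binding though the title names inhibitors; some compounds called inactive have numbers as strong as hits; positive values seem to mean higher polarization but the record does not say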
Vif A3G – HIV-1 Vif–A3G interaction blockers – biochemical, TR-FRET, GST-Vif 1-94, biotin-A3G peptide, dose response retest, primary screen (AID 1117319) | 0.57% of 260,000 active | TR-FRET GST-Vif / biotin-A3G peptide binding; higher % means a stronger effect; test concentration not given here; strong numbers were not always called active | inhibition, %; hits with a dose series show IC50 in µM;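 active = above the screen mean plus three standard deviations and confirmed in dose response; inconclusive = results disagree or hit not tested in dose response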;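 also: Vif residues 1-94 fused to GST binding biotinylated APOBEC3G peptide 110-148; 0% = full assay without inhibitor and 100% = GST in place of GST-Vif; retest series ran down from 100 µM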
UCH37 inh – human UCH37 deubiquitinating enzyme inhibition; purified proteasome/UCH37, Ub-AMC cleavage fluorescence; inhibition, % (test concentration not listed); 0.33% of 330,000 active;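 active = mean of two replicates above 20%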;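 also: 0% = compound-free wells with enzyme and 100% = wells lacking proteasome; stock transfer was 100 nL into about 20 µL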
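system = Proteasome-associated human UCH37 deubiquitinase | amount = 0.15 nM proteasome as dispensed | medium = pH 7.4 Tris-HCl (50 mM) with ovalbumin, ATP-MgCl2, DTT | incubation = 30 min preincubation with enzyme, 25 min cleavage at room temperature | detection = AMC fluorescence 355/460 nm | read-out basis = percent inhibition | controls = no-proteasome and no-compound wells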
* marks the source's active call; other numbers are inactive results; ? = inconclusive; nt = not tested or not shown; & = joins results of further samples. Rows are unselected; about 2.1% have a hit in one of these screens.

SMILES | A1 inh | E coli growth | LANA-H2B inh | Beta2AR agonist | HNF4A DNA FP | Vif A3G | UCH37 inh
COc1cccc(CN(CC2CCCO2)S(=O)(=O)c2ccc(-n3cnnn3)c(OC)c2)c1 (stereo unspecified) | -0.4 | 0.66 | -4.9 | -3 | 1.9 | 14% | 0.8
O=C(NCCNC(=O)c1ccccc1F)c1ccccn1 | -0.2 | 0.7 | 1.9 | 39 | 7.3 | nt | 5.6
CCCCCCn1c(CN2CCCCC2CC)nc2c1c(=O)n(C)c(=O)n2C (stereo unspecified) | 0.1 | 0.69 | 2.2 | 2 | -1.0 | 20% | 1.0
O=C(COC(=O)C1CC(=O)N(Cc2ccco2)C1)c1ccc(OC(=O)c2ccco2)cc1 (stereo unspecified) | -0.6 | 0.61 | -2.2 | 10 | -18 | 19% | 3.9
N#CCCn1c(SCC(=O)NCCc2ccc(F)cc2)nc2ccccc21 | 0.7 | 0.72 | -4.5 | -1 | 2.1 | 4% | -0.5
CN(C)S(=O)(=O)c1cccc(COC(=O)CCNC(=O)c2ccc([N+](=O)[O-])cc2)c1 | nt | 0.68 | nt | 1 | -0.6 | -9% | 3.3
Cc1cc(Nc2cccc(F)c2)n2c(n1)nc1ccccc12 | 0.1 | 0.72 | -4.3 | -10 | -1.2 | -2% | 0.9
O=C(CNC(=S)N(Cc1ccccc1)Cc1cccnc1)NC1CCCCC1 | 0.8 | 0.7 | -6.3 | -4 | 0.6 | nt | -3.3
OCCNc1nc(SCc2ccccc2)nc2sc3c(c12)CCC3 | nt | 0.68 | nt | 3 | -3.0 | 7% | 0.3
O=C(Nc1ccc(Br)cc1)c1ccc(N2C(=O)C3CCCCC3C2=O)cc1 (stereo unspecified) | -0.1 | 0.7 | -0.7 | 4 | -3.9 | nt | -1.4
Cc1cccc(NS(=O)(=O)c2csc(C(N)=O)c2)c1 | -0.4 | 0.68 | -2.4 | 0 | -6.6 | -4% | 5.0
O=C(O)c1ccc(-c2nnc(-c3ccccc3)o2)cc1 | -8.2 | 0.69 | -1.6 | -6 | 0.3 | -1% | 2.9
CCOc1ccc(NC(=S)N(CCc2c(C)[nH]c3ccc(C)cc23)Cc2ccncc2)cc1 | 0.0 | 0.74 | 1.5 | 4 | 4.8 | 2% | 5.9
COc1ccc2c(COC(=O)CC3Sc4ccccc4NC3=O)cc(=O)oc2c1 (stereo unspecified) | -0.6 | 0.72 | 15* | 6 | 1.6 | nt | -21
CCCCCOc1ccc(C(=O)CCC(=O)N2CCCC2)cc1 | nt | 0.67 | -5.6 | -7 | 1.1 | -16% | 1.8
Cc1ccc(OCCNC(=O)c2cc(C(=O)NCCOc3ccc(C)cc3)cc([N+](=O)[O-])c2)cc1 | 1.3 | 0.66 | -1.0 | -3 | 0.2 | 3% | 8.2
COc1ccc(CCNC(=O)COC(=O)COc2ccc(Cl)cc2)cc1OC | 0.3 | 0.7 | -8.8 | -5 | 0.7 | -7% | 0.5
Cc1nnc2ccc(-c3ccc(NS(=O)(=O)c4ccccc4)cc3)nn12 | nt | 0.7 | nt | 11 | 2.8 | -3% | 4.2
CC(OC(=O)Cc1ccccc1F)C(=O)Nc1ccc(Cl)cn1 (stereo unspecified) | nt | 0.67 | nt | 3 | -0.1 | 2% | 1.1
COc1ccc(C2=NN(C(=O)c3ccccc3)C(c3ccc(OC)c(OC)c3)C2)c(OC(C)=O)c1 (stereo unspecified) | -0.7 | nt | 3.8 | 9 | 6.7 | nt | nt
COc1ccc(N(CC(=O)N/N=C/c2cccc3c2OCCO3)S(=O)(=O)c2ccc(NC(C)=O)cc2)cc1 | -0.1 | nt | -0.3 | 12 | -0.8 | 2% | nt
CCOC(=O)c1cc2occc2n1CC(=O)NC1CCCCC1C (stereo unspecified) | 0.2 | 0.7 | -4.6 | -6 | -1.6 | 19% | 4.2
O=C(Nc1ccon1)c1ccc(OC2CCCC2)cc1 | -3.4 | 0.64 | -1.2 | -17 | -5.0 | -3% | 3.4
CCOc1cc(/C=C2\N=C(C)OC2=O)cc(Br)c1OCCc1ccccc1 | -0.2 | 0.61 | 1.2 | 5 | -3.1 | 2% | 1.5
COc1cc(/C=C/C(=O)OCC(=O)Nc2cc(S(=O)(=O)N3CCCC3)ccc2Cl)cc(OC)c1OC | 0.6 | 0.69 | -10 | 8 | 8.4 | -10% | -6.7
CCNC(=O)NC(=O)COC(=O)CCc1nc(=O)c2ccccc2n1C | 0.0 | 0.7 | 2.4 | -1 | 0.4 | 4% | 0.1
CC(=O)N/C(=N/c1nc(C)cc(C)n1)Nc1ccc(NC(C)=O)cc1 | 0.8 | 0.71 | 5.9 | -2 | 1.4 | -1% | 2.3
CCN(CC)S(=O)(=O)c1cc(NS(=O)(=O)c2ccc(Cl)c(C(=O)O)c2)ccc1C | 1.2 | 0.69 | 1.6 | -6 | -0.1 | nt | 2.6
COc1ccc(C(CNc2ncnc3sccc23)N(C)C)cc1OC (stereo unspecified) | -1.0 | 0.7 | -3.9 | 4 | 7.9 | nt | -4.0
O=c1c(-c2ccccc2)c(O)c2c(n1-c1ccccc1)CCCC2 | -0.3 | 0.64 | -0.2 | -5 | 4.9 | 0% | 4.0
CCN(CC)c1ncnc2ccc(Br)cc12 | 0.2 | 0.66 | -2.8 | 3 | -1.1 | 12% | 7.2
CC(=O)Oc1ccc(C2C3=C(CC(C)(C)CC3=O)Nc3cc4c(cc32)OCCO4)cc1 (stereo unspecified) | -0.4 | 0.69 | 2.1 | 6 | -1.5 | ? | -306
C#CCCOC(=O)N1C2=NC(C(=O)OC)=C(C(=O)OC)[C@@H]3N(CC=C)c4ccccc4[C@]23C[C@H]1C(=O)OC | 0.1 | nt | 2.4 | -2 | 5.2 | nt | 2.5
O=C(O)c1cccc(Oc2ncnc3sc4c(c23)CCCC4)c1 | 0.9 | 0.71 | -1.4 | 9 | -1.3 | -6% | -1.1
O=C(CSc1nc2ccccc2o1)c1ccccc1 | -1.4 | 0.75 | -6.2 | -2 | 2.5 | 11% | 2.9
CCc1c(C)nc(SCC(=O)N2CC(C)OC(C)C2)[nH]c1=O (stereo unspecified) | -0.4 | 0.69 | -3.1 | 4 | 4.5 | -1% | 1.7
CCOc1ccccc1CNC(=O)CCNS(=O)(=O)c1ccc2[nH]c(=O)oc2c1 | -0.8 | 0.68 | -0.8 | 7 | 1.8 | 10% | 2.9
CC(C)N1C(=O)S/C(=C\c2ccc(-c3ccc(Cl)c(C(=O)O)c3)o2)C1=O | -5.3 | 0.68 | -0.2 | 4 | -1.3 | 3% | 4.6
CCOP(=O)(CN(CC)C(=O)c1ccccc1Br)OCC | 1.1 | 0.71 | -2.6 | 8 | 4.1 | 1% | 1.5
CN(C)CCCN(C(=O)c1ccc(S(=O)(=O)N2CCc3ccccc3C2)cc1)c1nc2c(F)cccc2s1 | -0.5 | 0.69 | 0.2 | 31 | 2.7 | nt | 3.7

Part of the list above, reformatted:
SMILES	A1 inh	E coli growth	LANA-H2B inh	Beta2AR agonist	HNF4A DNA FP	Vif A3G	UCH37 inh
O=C(O)c1cccc(Oc2ncnc3sc4c(c23)CCCC4)c1	0.9	0.71	-1.4	9	-1.3	-6%	-1.1
CCN(CC)c1ncnc2ccc(Br)cc12	0.2	0.66	-2.8	3	-1.1	12%	7.2
CCOP(=O)(CN(CC)C(=O)c1ccccc1Br)OCC	1.1	0.71	-2.6	8	4.1	1%	1.5

Remaining list, next part
SMILES | A1 inh | E coli growth | LANA-H2B inh | Beta2AR agonist | HNF4A DNA FP | Vif A3G | UCH37 inh
CCc1ccccc1NC(=O)Nc1ccsc1C(=O)OC | -0.4 | 0.65 | -3.2 | 8 | 4.6 | nt | 0.4
Cc1cc(C)cc(N2C(=O)C3C4C=CC(C4)C3C2=O)c1 (stereo unspecified) | 0.0 | 0.74 | 1.7 | 8 | -0.7 | -4% | -2.8
CC(OC(=O)c1cccnc1Cl)C(=O)Nc1ccc2c(c1)OCO2 (stereo unspecified) | -0.3 | 0.72 | 2.2 | -6 | 0.2 | nt | 3.6
Cc1ccc(C)c(S(=O)(=O)Nc2ccc(C(=O)NCC(c3ccco3)N(C)C)cc2)c1 (stereo unspecified) | -0.5 | 0.7 | 4.1 | 3 | -2.4 | 3% | 3.2
COc1cccc(/C=C/C(=O)Nc2ccc3nc4n(c(=O)c3c2)CCCC4)c1OC | 0.3 | 0.66 | 1.0 | -6 | -0.3 | nt | 2.5
Cc1ccc(S(=O)(=O)N2CCN(c3nc(C)nc4sc(C)c(C)c34)CC2)cc1 | nt | 0.67 | nt | nt | nt | -7% | 2.4
O=C(CNC(=O)c1ccc(Br)o1)Nc1ccc(N2CCCCCC2)cc1 | nt | 0.65 | nt | 1 | 0.3 | 2% | 1.7
CC(C)(C)c1ccc(OCCN2CCCC2)cc1 | -0.1 | 0.69 | 1.4 | 3 | -0.5 | 19% | 4.0
Cc1ccc(C(=O)NC2CCCC2)cc1S(=O)(=O)N1CCCCC1 | 0.0 | 0.69 | 1.3 | -7 | 2.8 | -3% | 3.1
O=C(Cc1ccc(F)cc1)N1CCOCC1 | -0.7 | 0.64 | -3.2 | 6 | -2.6 | nt | 0.8
Fc1ccccc1COc1ccccc1/C=N/Nc1nc(N2CCCC2)nc(N2CCCC2)n1 | -1.1 | nt | -10 | 1 | -0.7 | 2% | nt
CC(=O)c1c(C)oc2ccc(OCc3ccccc3)cc12 | -1.3 | 0.68 | 6.6 | -8 | -1.0 | -5% | 0.4
O=C(/C=C/c1ccco1)Nc1nc(-c2ccccn2)cs1 | -3.3 | 0.63 | 2.3 | 4 | -20 | 16% | 4.0
O=C(NC(=S)Nc1ccccc1[N+](=O)[O-])c1ccccc1 | -0.3 | 0.67 | -1.2 | -10 | -3.0 | 3% | 2.5
O=c1cc(-c2ccccc2)[nH]n2cnnc12 | -0.7 | 0.67 | 13 | 9 | 1.2 | -2% | 1.0
CCCCc1cc(=O)oc2cc(OCC(=O)N(CC)CC)ccc12 | -0.3 | 0.7 | -6.1 | -9 | 2.2 | -3% | -42
CC(=O)c1cccc(Nc2cc(C)nc3c(C)cc(C)cc23)c1 | 0.4 | 0.7 | -9.5 | 4 | 0.9 | nt | 6.8
C=C1CC2(CC(c3ccccc3)OC(c3ccccc3)C2)OC1=O (stereo unspecified) | nt | nt | nt | 29 | 1.1 | -5% | nt
CC1CCc2sc3c(c2C1)c1ncnn1c(=O)n3CC(=O)c1ccc(Br)cc1 (stereo unspecified) | 0.2 | 0.74 | 4.7 | 3 | 2.0 | -1% | 5.2
CC(C)(C)c1ccc(-c2nc(O)c(CC(=O)O)s2)cc1 | -0.3 | nt | 2.7 | nt | nt | -3% | nt
CCOC(=O)C1CCN(C(=O)CNC(=O)c2nn(-c3ccc(OC)cc3)c(=O)c3ccccc23)CC1 | 0.2 | 0.68 | -2.2 | 0 | 4.3 | nt | 0.5
Cc1ccc(NC(=O)CCNS(=O)(=O)c2ccc(OC(F)(F)F)cc2)c(O)c1 | -0.5 | 0.69 | -15 | 5 | -2.2 | nt | -0.5
CN(C)[C@@H](CO)c1nnc([C@H](CCC(=O)O)NC(=O)C2CCNCC2)o1 | 0.1 | nt | -1.8 | -5 | -2.5 | -1% | -0.1
CN(c1ccccc1)S(=O)(=O)c1ccc(C(=O)OCC(=O)N2CCOCC2)cc1 | 0.2 | 0.71 | 3.8 | -3 | 0.9 | 8%&-6% | 3.9
Cc1cccc(Nc2nnc(SCC(=O)Nc3cccnc3Cl)s2)c1 | -0.6 | 0.67 | nt | -3 | 1.0 | -3% | 5.7
